High-throughput results (PubChem)
D2 agonist – human D2 receptor agonism in beta-arrestin assay | P14416 | DiscoveRx PathHunter D2 beta-arrestin, luminescence, 90 min; 100% = 57 uM dopamine signal | activation, % (concentration not given with the values) | actives 0.084% (n = 360,000); in the data active = activation above about 40%; inconclusive = about 15% to 40%; inactive = below about 15%; note: compound concentration not given in the record; the text of the record calls up to 30% inactive
Target sequence (P14416 whole entry, looked up): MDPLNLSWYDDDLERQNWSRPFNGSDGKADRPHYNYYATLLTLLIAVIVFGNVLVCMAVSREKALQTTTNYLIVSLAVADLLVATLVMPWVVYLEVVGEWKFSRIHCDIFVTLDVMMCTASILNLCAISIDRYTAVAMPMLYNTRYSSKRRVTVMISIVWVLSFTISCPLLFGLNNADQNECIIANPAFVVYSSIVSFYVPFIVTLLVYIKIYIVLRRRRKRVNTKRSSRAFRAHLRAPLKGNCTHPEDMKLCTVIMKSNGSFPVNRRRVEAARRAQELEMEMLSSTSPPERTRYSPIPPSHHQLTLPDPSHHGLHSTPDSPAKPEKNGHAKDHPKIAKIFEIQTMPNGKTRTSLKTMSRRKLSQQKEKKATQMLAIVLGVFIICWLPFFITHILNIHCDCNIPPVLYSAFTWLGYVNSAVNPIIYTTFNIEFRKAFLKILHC
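DiscoveRx PathHunter D2 beta-arrestin cells (2,100/well) attached overnight, then compound-stimulated 90 min at 37 C in HBSS/10 mM HEPES/0.1% Tween-20 buffer; beta-galactosidase complementation read by luminescence after 1 h at ambient temperature. Dopamine 57 uM final (EC100) as control.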
D2 potentiator – positive allosteric modulators of human D2 dopamine receptor. P14416. DiscoveRx D2 beta-arrestin cells, luminescence, 90 min; 100% = 57 uM dopamine signal. potentiation, % (test concentration not listed). actives 0.23% (n = 360,000). AID 624464; active = potentiation of 50% or more; inconclusive = 30% to 50%; inactive = 30% or less;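 note: compound concentration not given in the record; tested on top of an EC20 dose of dopamine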
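PathHunter D2 cells, attached overnight at 37 deg C, received compound in DMSO plus dopamine at EC20 (50 nM final) for 90 min at 37 deg C. Beta-arrestin recruitment was read as luminescence after 1 h with detection reagent at ambient temperature.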
Six1-Eya2 inh – inhibitors of human Six1/Eya2 interaction; Q15475+O00167; actives 0.56% (n = 360,000); activity change, % (no concentration beside the values); AID 651725; AlphaScreen GST-Six1/His-Eya2 binding, biochemical; active compounds read low; control for the full effect not named in the record; in the data active = activity change below about -65%; inconclusive = about -30% to -65%; inactive = above about -30%; note: % is set by controls: 0 for no effect and ±100 for the full control effect
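AlphaScreen luminescence read after one hour at 37 °C in darkness. Pin-transferred compounds met GST-Six1 and His-Eya2 protein (5X stock 250 nM/500 nM) plus glutathione donor and Ni-chelate acceptor beads (5X, 50 ug/mL).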
TRPML1 agonist – activates the human TRPML1 channel. actives 0.12% (n = 410,000). Q9GZU1. activation, % (test concentration not listed). TRPML1-expressing cells, Ca2+ dye fluorescence, FDSS; host cell line not named in the record; reference of the full effect not given here. AID 624414; in the data active = activation above about 50%; inconclusive = about 30% to 50%; inactive = below about 30%; note: 0% is about no effect; the text of the record puts the active cut at 80%
Target sequence (Q9GZU1 whole entry, looked up): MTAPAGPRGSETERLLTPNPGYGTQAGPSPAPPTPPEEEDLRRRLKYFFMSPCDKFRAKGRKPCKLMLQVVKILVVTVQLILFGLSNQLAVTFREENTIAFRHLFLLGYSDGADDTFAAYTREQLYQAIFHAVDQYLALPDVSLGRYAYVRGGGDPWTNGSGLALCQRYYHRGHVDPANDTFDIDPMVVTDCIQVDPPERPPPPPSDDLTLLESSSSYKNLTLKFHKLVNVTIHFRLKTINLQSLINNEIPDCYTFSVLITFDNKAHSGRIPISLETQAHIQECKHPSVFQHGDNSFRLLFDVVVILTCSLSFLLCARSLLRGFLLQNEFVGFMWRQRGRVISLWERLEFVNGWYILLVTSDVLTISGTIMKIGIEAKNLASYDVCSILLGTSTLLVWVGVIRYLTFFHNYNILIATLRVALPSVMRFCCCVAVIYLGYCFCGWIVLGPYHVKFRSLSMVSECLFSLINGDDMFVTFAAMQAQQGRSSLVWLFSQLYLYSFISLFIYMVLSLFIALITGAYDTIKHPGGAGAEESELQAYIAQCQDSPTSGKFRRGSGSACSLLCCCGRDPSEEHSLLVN
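Agonist activity was taken from a 110 s kinetic Ca2+ dye read on the FDSS after pinning compounds onto TRPML1-DL cells. The cells were seeded at 1,500/well with Tet inducer, incubated about 16 h, then dye-loaded at room temperature.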
PINK1 modulator – changes PINK1 expression | PINK1 immunofluorescence, high-content cytometry, 24 h | Potency, µM (series often up to 76.6 µM), for inactives: top-dose activation (PINK1 increase), hits mostly activators | actives 0.2% (n = 410,000) | AID 624263; active = well fitted activation curve with a large enough effect; inconclusive = small, poorly fitted or top-dose-only effect; inactive = flat fitted curve, though single readings scatter; cell line not stated here;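 note: potency is the fitted concentration of half-maximal effect; % of control where 0% means no effect; nearly all actives have a fitted effect of over 65% in size; a mitochondrial uncoupler was the plate control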
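Decision-based qHTS: stable cells, 24 h exposure to five compound concentrations, CCCP as control. Fixed cells stained for PINK1 plus nuclear, mitochondrial and cell markers, cytometer read.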
TRPML1 blocker – blocks the human TRPML1 channel | Q9GZU1 | TRPML1-inducible cells, Ca2+ dye fluorescence, FDSS; active compounds read low; inhibition of EC80 agonist-evoked calcium signal | activity change, negative = inhibition, % (no concentration beside the values) | actives 0.02% (n = 390,000); in the data active means activity change below about -50%; inconclusive means about -30% to -50%; inactive means above about -30%;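 note: stimulus is agonist 54-4 at its EC80 concentration; % is set by controls: 0 for no effect and ±100 for the full control effect; compound concentration not given in the record; the text of the record puts the active cut at -80%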
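Calcium fluorescence in TRPML1-DL cells induced overnight with Tet: a 110 s read after compound pin addition, then a 110 s antagonist read after challenge with 54-4 at 4 uM final (EC80).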
Starred values were filed as active, the others as inactive; ? = inconclusive; . = not tested or not shown; & = joins results of further samples; [ ] = remark or other dose.

The opening 3 records as a preview:
SMILES	D2 agonist	D2 potentiator	Six1-Eya2 inh	TRPML1 agonist	PINK1 modulator	TRPML1 blocker
Cc1cnc(CNC(=O)c2ccc3sc([C@H]4C[C@H](O)[C@@H](CO)O4)nc3c2)cn1	-4.5	-12	-1	-0.1	1.1%	.
CCN(Cc1nc2cc(Cl)ccc2c(=O)[nH]1)C(=O)C1CC(=O)N(c2cccc3ccccc23)C1 (stereo unspecified)	0.6	3	0	0.5	0.7%	-22
COC(=O)c1ccccc1NC(=O)Nc1nnc(N2CCCCC2C)s1 (stereo unspecified)	-4.3	-5	5	0.5	4.2%	6

The whole of this part, previewed entries included:
SMILES	D2 agonist	D2 potentiator	Six1-Eya2 inh	TRPML1 agonist	PINK1 modulator	TRPML1 blocker
Cc1cnc(CNC(=O)c2ccc3sc([C@H]4C[C@H](O)[C@@H](CO)O4)nc3c2)cn1	-4.5	-12	-1	-0.1	1.1%	.
CCN(Cc1nc2cc(Cl)ccc2c(=O)[nH]1)C(=O)C1CC(=O)N(c2cccc3ccccc23)C1 (stereo unspecified)	0.6	3	0	0.5	0.7%	-22
COC(=O)c1ccccc1NC(=O)Nc1nnc(N2CCCCC2C)s1 (stereo unspecified)	-4.3	-5	5	0.5	4.2%	6
O=C(CN1C(=O)c2ccccc2C1=O)N(CCO)Cc1ccccc1	8.6	-4	1	1.3	-3.0%	-3
COc1ccc(C(=O)N/C(N)=N/c2nc3ccccc3o2)cc1	-3.5	-12	-1	2.1	7.8%	30
O=C(O)c1ccc(-n2cccc2/C=N\NC(=O)c2cc3cc(Br)ccc3o2)cc1	0.1	-6	-20	0.7	1.3%	7
O=c1c(Cc2c(F)cccc2Cl)c(O)ccn1CCCN1CCOCC1	-1.5	-13	-11	-0.2	-1.3%	9
Oc1cc2c(cc1CN1CCc3ccccc3C1)OCO2	-0.4	-21	-12	-0.6	-0.3%	12
COc1ccc(NC(=O)N(C)C[C@H]2OCc3cnnn3CCCC(=O)N([C@@H](C)CO)C[C@H]2C)cc1	1.0	6	18	-0.4	1.1%	50
CC(C(=O)Nc1ccc(F)c(F)c1F)N1CCCCCC1 (stereo unspecified)	-5.3	-8	0	0.7	4.4%	15
Cc1cccc(C(=O)NNC(=O)c2ccc(S(=O)(=O)N3CCOCC3)cc2)c1	6.0	3	2	-0.2	2.0%	-1
Cc1ccccc1OCCC(=O)Nc1cccc(S(=O)(=O)Nc2ccccc2Cl)c1	1.7	0	-17	0.1	-0.3%	10
Cc1ccc(NC(=O)CCN2CCCCC2)cc1	-0.1	-28	-1	.	0.2%	.
COc1ccc2c(CC(=O)Nc3ncc(C)s3)coc2c1	-1.8	-1	-2	0.4	2.6%	-5
CCOc1ccccc1N=C1NC(=O)CS1	-2.2	-6	-4	-0.8	-3.1%	-4
Cc1cc(Nc2cc(Cl)ccc2C)n2nc(-c3ccccc3)nc2n1	.	.	.	0.3	5.1%	42
Cc1cnc(C(=O)N2CCCC(N3CCN(c4ccccc4C)CC3)C2)cn1 (stereo unspecified)	0.8	-27	0	-0.8	0.2%	8
COc1cc2cc(/C=C/C(=O)c3ccco3)c(Cl)nc2cc1OC	-1.7	-3	2	0.9	-3.0%	18
C=CCN1C(=O)C(Cc2ccc(SC(F)F)cc2)SC1=Nc1ccc(C(=O)O)cc1 (stereo unspecified)	-3.4	-6	1	-1.7	-2.7%	12
COc1ccc(CC(=O)N2CCN=C2SCc2ccc([N+](=O)[O-])cc2)cc1	-1.7	-10	-14	0.1	0.9%	42
CCc1ccc(OCC(=O)Nc2ccc(Cl)c(-c3nc4cc(C)cc(C)c4o3)c2)cc1	.	.	.	0.2	2.3%	-18
CCN(CC)CCN1C(=O)C(=O)/C(=C(/O)c2c(C)[nH]c(C(=O)OC)c2C)C1c1ccc(OC)cc1 (stereo unspecified)	0.3	-8	1	-0.1	0.0%	-5
CC(C)(C)C1CCC(OCC(O)CN2CCCC2)CC1 (stereo unspecified)	-6.6	2	0	0.2	0.1%	-1
C#CC[N+]1(CC#Cc2ccccc2)CCOCC1	-1.9	26	4	0.0	-1.2%	0
O=C(CCCn1c(=O)[nH]c2cc(Cl)ccc2c1=O)NC1CCCCCCC1	-1.4	8	6	4.1	-0.7%	1
Cc1c(NC(=O)C(C)OC(=O)CC2Sc3ccccc3NC2=O)c(=O)n(-c2ccccc2)n1C (stereo unspecified)	-4.0	-24	7	-0.2	.	30
CCCN(C(=O)c1cn(CC)c2nc(C)ccc2c1=O)c1c(N)n(Cc2ccccc2)c(=O)[nH]c1=O	-1.7	8	3	2.5	3.0%	-2
Cc1ccc(-n2c(=O)c3sccc3n(Cc3cc(=O)n4ccccc4n3)c2=O)cc1	-1.0	2	3	2.0&-0.1	3.3%&3.4%	4&-8
COc1cccc(-c2ccnc3[nH]n(-c4ccccc4)c(=O)c23)c1	-0.7	-1	-1	-0.7&-0.3	-1.0%&-0.5%	-10&-8
CCCCOP(=O)(c1ccc(N(C)C)cc1)C(O)c1cc(OC)c(OC)c(OC)c1 (stereo unspecified)	-2.1	-8	-8	-0.3	0.6%	12
CC(NC(=O)COc1ccc(Br)cc1)C1CCCO1 (stereo unspecified)	-0.4	-6	17	-0.1	-0.7%	-12
Cc1cc(C)cc(NC(=S)N(CCN(C)C)Cc2cccs2)c1	-2.0	-8	0	1.3	-0.3%	-11
NS(=O)(=O)c1ccc(CCNc2nc(CN3CCOCC3)nc3sc4c(c23)CCC4)cc1	-4.2	-10	6	0.1	4.9%	9
CCCCCCCCCCCC(=O)NC(Cc1ccc(OC)c([N+](=O)[O-])c1)C(=O)O (stereo unspecified)	-1.8	-1	-5	1.6	1.5%	-3
CCCCNC(=S)NNC(=O)c1ccoc1C	-2.9	-10	6	-0.7	5.7%[38.3 µM]	33
CC(=O)N1CCN(S(=O)(=O)c2cccc(C(=O)Nc3nccs3)c2)CC1	-6.8	-7	1	0.4	3.1%	3
COc1cccc(-c2nn(Cc3ccccc3)cc2CO)c1	-4.1	-5	-1	-0.1	-0.1%	-6
CC1(C(=O)O)CC(C)(C(=O)O)CC(C)(C(=O)O)C1 (stereo unspecified)	-1.4	-8	14	-0.4	-0.5%	-4
Nn1c(CN2CCCCC2)nc2ccccc2c1=O	-2.2	-5	-2	-0.4	-4.3%[38.3 µM]	28
O=C(O)c1cccc(NC(=S)NC(NC(=O)c2ccccc2[N+](=O)[O-])C(Cl)(Cl)Cl)c1 (stereo unspecified)	-2.0	-3	2	-0.1	1.0%	-2
COc1ccc(OCc2cc(C(=O)N3CCCC(CO)C3)no2)c2ccccc12 (stereo unspecified)	15	74*	-5	0.1	3.2%	-5
O=C(NC1CCCCCC1)C1CCCN(c2ncccn2)C1 (stereo unspecified)	-1.3	-15	1	1.0	0.4%	23
CCC(=O)Oc1ccc(-c2nc(-c3cccnc3)no2)cc1	-3.6	6	-15	-0.8	42%[38.3 µM]	-1
COC(=O)CCCC1=CC2=CC(=O)C(C)(OC(=O)c3cccs3)C(=O)C2=CN1c1ccccc1 (stereo unspecified)	2.5	-1	-15	0.4	-0.2%	-7
Cc1nnc(NC(=O)c2nc(SCc3ccccc3F)ncc2Cl)s1	.	.	.	1.0	0.3%	-11
CCCCC1(CC)C(=O)NC(=O)NC1=Nc1ccc(OC)cc1 (stereo unspecified)	-2.2	-11	4	-0.1	-0.4%[38.3 µM]	5
COc1ccc(S(=O)(=O)N(C)C[C@H]2Oc3ccc(NC(=O)NC4CCCCC4)cc3C(=O)N([C@H](C)CO)C[C@@H]2C)cc1	-0.8	7	-3	-0.3	-0.1%	-7
CC(=O)c1cccc(NC(=O)c2ccc3nc(C(C)C)oc3c2)c1	.	.	.	-0.6	-0.4%	-5
Cc1ccc(C(=O)N2CCN(C(=O)c3ccccc3)C2c2ccc(N(C)C)cc2)cc1 (stereo unspecified)	0.0	2	-11	0.2	1.9%	-18
CCc1cccc(C)c1NC(=O)CSc1nnc(C)o1	-0.1	6	1	0.5	0.5%	15
Next part.
SMILES	D2 agonist	D2 potentiator	Six1-Eya2 inh	TRPML1 agonist	PINK1 modulator	TRPML1 blocker
O=C(NCCNCCO)C1(C(F)(F)F)C/C(=C\Cc2ccccc2)CCCO1 (stereo unspecified)	-0.6	-7	0	0.1&-0.1	1.0%	16&-6
COCc1nc2ccccc2n1CCc1ccccc1	-2.2	-32	8	-0.5	-0.8%	4
O=C(CSc1ncn[nH]1)NNC(=O)c1ccccc1	-1.7	5	-6	-0.2	1.2%	1
NC(=O)c1cc(S(=O)(=O)N2CCOCC2)ccc1N1CCCC1	-3.4	-12	-4	-0.5	-0.4%	-2
CC(=O)c1c(COC(=O)c2ccc(Cl)cc2)nc2ccccc2[n+]1[O-]	-1.6	-5	-4	2.0	1.5%	68
COc1ccccc1CNS(=O)(=O)c1cccc2nsnc12	0.3	4	-1	-0.3	0.4%	-19
CCSc1nc(-c2cccc(Cl)c2)nc2c1Cc1c(CO)cnc(C)c1O2	.	.	.	0.7	0.0%	-14
CCN(CC(=O)NCc1ccc(F)cc1)C(=O)c1ccc(COc2ccccc2)cc1	0.7	-6	-11	0.9	3.7%	4
O=C(Nc1ccc(Cl)cc1)C1C2CCC3C(CCC21)C3(Cl)Cl (stereo unspecified)	0.4	23	7	0.0	14%	6
O=C(CSc1nnc(CNC(=O)c2cccc(C(F)(F)F)c2)o1)NC1CCCC1	-2.6	-1	11	1.8	-0.6%	18

Individual results from the list:
CCN(CC)CCN1C(=O)C(=O)/C(=C(/O)c2c(C)[nH]c(C(=O)OC)c2C)C1c1ccc(OC)cc1 (stereo unspecified) | TRPML1 blocker = -5
Cc1cnc(C(=O)N2CCCC(N3CCN(c4ccccc4C)CC3)C2)cn1 (stereo unspecified) | D2 agonist = 0.8
COc1ccc(C(=O)N/C(N)=N/c2nc3ccccc3o2)cc1 | TRPML1 agonist = 2.1
COCc1nc2ccccc2n1CCc1ccccc1 | D2 agonist = -2.2
Cc1cccc(C(=O)NNC(=O)c2ccc(S(=O)(=O)N3CCOCC3)cc2)c1 | PINK1 modulator = 2.0%
CCCN(C(=O)c1cn(CC)c2nc(C)ccc2c1=O)c1c(N)n(Cc2ccccc2)c(=O)[nH]c1=O | TRPML1 blocker = -2

(next part)
SMILES	D2 agonist	D2 potentiator	Six1-Eya2 inh	TRPML1 agonist	PINK1 modulator	TRPML1 blocker
Cc1ccc(-c2nnn3c2nc(Cl)c2ccccc23)cc1	0.0	-7	-5	-1.1	1.7%	4
Cc1ccc2c([N+](=O)[O-])c(C)ccc2n1	-1.1	-3	-4	2.4	-2.8%	5
CC1=C(C(=O)OC(C)C)C(c2ccccc2)NC(=S)N1C (stereo unspecified)	-2.1	-11	-1	1.4	4.3%	-21
CCc1nnc(NC(=O)C2c3ccccc3Oc3ccccc32)s1	-8.5	-23	23	0.7	-2.7%	-5
CCn1nnnc1SCC(=O)c1ccc(C)cc1C	-2.9	-7	0	-1.2	-1.1%	2
CC1CCCCN1CCNC(=O)Cn1nc(-c2ccccc2)ccc1=O (stereo unspecified)	-1.3	-13	-6	1.0	-3.7%[38.3 µM]	4
Cc1nc(C(=O)NC2CCCCC2)sc1C1(C)CC(c2cccc([N+](=O)[O-])c2)=NO1 (stereo unspecified)	1.3	-2	-21	-0.6	2.0%	16
Cc1c(Cl)cccc1NC(=O)COC(=O)CCc1nc2ccccc2n1-c1ccccc1	1.3	-14	21	3.5	?	14
